From PubChem BioAssay
YjeE inh: qHTS Assay for Inhibitors of YjeE. tRNA threonylcarbamoyladenosine biosynthesis protein TsaE (Escherichia coli (strain …. purified YjeE, fluorescence polarisation of a bound ADP probe. Potency, µM. 71,000 tested, 0.05% active. AID 605, 2007; active = well fitted falling curve; inconclusive = weaker or top-dose-only fall, or a rising curve; inactive = flat or poorly fitted curve;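 further: top concentration of the series not given in the record; excess ADP was the control for the full effect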
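Purified YjeE (10 uM) with BODIPY Texas Red-labeled ADP probe (2 uM); compounds pin-transferred, 15 min at room temperature. Binding inhibition read as decreased fluorescence polarization; ADP titration as control.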
PK Bst: Pyruvate Kinase; Potency, µM; partly purified Bacillus stearothermophilus pyruvate kinase, luminescence ATP production; ribose 5-phosphate activator present at AC10; 51,000 tested, 1.2% active; in the data active means potency below about 11 µM; inconclusive means mostly about 12 µM to 25 µM; inactive means weaker than that;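 the screen sought inhibitors and activators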;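 further: potency means the concentration at half of the fitted maximal effect; scaled between full activation by ribose 5 phosphate and full inhibition by luteolin; about four in five hits inhibit and the cells do not say which; series up to 57 µM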
* marks the source's active call; other numbers are inactive results; i = inactive; ? = inconclusive; / = no result given. The list is partial (hit frequency here may not be typical).

Results follow in this order: YjeE inh, PK Bst
CCOC(=O)C1CCCN(C(=O)C2CCCN(S(C)(=O)=O)C2)C1 (stereo not drawn)
 : i, >57
COc1ccccc1CNc1n[nH]c(NCc2ccccc2OC)n1
 : i, >57
COC(=O)c1ccccc1NC(=O)c1nc2nc(C)cc(C(F)F)n2n1
 : i, >57
Cc1cnc(CNc2nc(-c3ccccc3C(F)(F)F)nc3ccccc23)cn1
 : i, /
CCOC(=O)N1CCC(N2C(=O)c3ccccc3C2Nc2ccc(Cl)cn2)CC1 (stereo not drawn)
 : i, /
O=C(COC(=O)C1(c2ccccc2F)CCCC1)N1CCN(C(=O)c2ccco2)CC1
 : i, >57
COC(=O)C1(Cc2ccccc2)C=C2C(=C(C(C)C)C(=O)C2C)CN1 (stereo not drawn)
 : i, /
CCCOC(=O)CCc1n[nH]c(=O)[nH]c1=O
 : i, >57
Cc1noc(C)c1COC(=O)COc1ccc2c(C)cc(=O)oc2c1
 : i, >57
CCOC(=O)C(C)n1cnc2c(oc3ccccc32)c1=O (stereo not drawn)
 : i, >57
Cc1c(NC(=O)CSc2nc3c(cnn3-c3ccccc3)c(=O)[nH]2)c(=O)n(-c2ccccc2)n1C
 : i, >57
Cc1c(C(=O)O)oc2ccc(S(=O)(=O)NCc3ccc(F)cc3)cc12
 : i, >57
N#CC1=C(N)Oc2n[nH]c(-c3ccc(F)cc3)c2C1c1cccc(OC(=O)N2CCOCC2)c1 (stereo not drawn)
 : i, >57
COc1ccccc1CNC(=O)c1ccc(CS(=O)(=O)c2ccccc2OC)o1
 : i, >57
Cc1ccc(CCNC(=O)C2CCN(S(=O)(=O)c3c(C)nn(C)c3C)CC2)cc1
 : i, /
Cn1cccc1C(=O)NC(=O)CSc1nnc(C2CC2)n1-c1ccccc1
 : i, >57
O=C(/C=C\c1ccc(O)c(O)c1)O[C@@H](Cc1ccc(O)c(O)c1)C(=O)O
 : i, /
CCn1c(SCC(=O)NCCc2ccc(Cl)cc2)nnc1-c1cccs1
 : i, >57
O=C(OCC(=O)N1CCc2ccccc21)C1=COCCO1
 : i, >57
CCOC(=O)c1sc2nc(CC(=O)OC)nc(NCCN3CCOCC3)c2c1C
 : i, >57

(next part)
Results follow in this order: YjeE inh, PK Bst
N#Cc1ccccc1N=C1CCCN1Cc1ccccc1
 : i, /
CSc1cc2c(cc1C(F)(F)F)N(C(=O)Nc1cccnc1)CC2
 : i, /
NC(=O)c1ccccc1N=Cc1ccccn1
 : i, >57
Cc1nnc(NC(=O)c2c(F)c(F)c(F)c(F)c2F)s1
 : i, >57
CCOC(=O)CC(N)c1ccc2c(c1)OCO2 (stereo not drawn)
 : i, >57
COc1ccc(Cn2nnnc2C(c2cc3cc(C)ccc3[nH]c2=O)N2CCOCC2)cc1 (stereo not drawn)
 : i, >57
Cc1csc(=O)n1CCC(=O)O
 : i, >57
COc1ccc(C2C3=C(CC(C)(C)CC3=O)Oc3ncn(CC(C)C)c(=N)c32)cc1 (stereo not drawn)
 : i, >57
O=C1C(C=NCCN2CCOCC2)=C(O)c2ccccc21
 : i, /
Cn1c(Cn2c(=O)sc3ccccc32)nnc1SCc1cccc(F)c1
 : i, /
CCN(C(=O)CN1CCN(C)CC1)c1cccc2ccccc12
 : i, >57
CCC/C=C(\CCC)C(NS(=O)(=O)c1ccc(C(F)(F)F)cc1)c1ccc(-c2ccccc2)cc1 (stereo not drawn)
 : i, /
O=C(NC1=NCCS1)Nc1ccccc1
 : i, i
Cn1c(=O)[nH]c(=O)c2c1nc(N(CCO)Cc1ccccc1)n2Cc1ccccc1Cl
 : /, >26
COc1ccc(S(=O)(=O)N(C)CC(=O)Nc2c(F)cccc2F)cc1
 : i, >57
CCOC(=O)Cn1nc(C)c2ccccc2c1=O
 : /, >26
COc1ccc(C(=O)N2CCC3(CC2)CCN(C(c2ccccc2)c2ccccc2)CC3)cc1
 : i, /
Cc1cc(C)nc(/N=C2\NC(=O)CC3C(=O)NCCN23)n1 (stereo not drawn)
 : i, >57
COc1cc(C2C3CN(C)CC=C3C(C#N)=C(N)C2(C#N)C#N)ccc1OC(C)C (stereo not drawn)
 : i, >57
COc1ccc(C)cc1NC(=O)NCCC1=CCCCC1
 : i, >57

Later entries
Results follow in this order: YjeE inh, PK Bst
CC1=C(C#N)C(c2ccc3ncccc3c2)C(C#N)=C(C)N1
 : i, >57
O=C(NCc1ccccn1)C1CCCN(S(=O)(=O)c2ccccc2)C1 (stereo not drawn)
 : i, >57
CCOC(=O)CCCNC(=O)CN1C(=O)NC2(CCCCCC2)C1=O
 : i, >57
CCNc1ncc2nc(-c3cccs3)c(=O)n(Cc3cccs3)c2n1
 : i, /
Cc1[nH]c2ccccc2c1-c1nc2ccccc2[nH]1
 : i, /
CC(=O)c1ccc(NC(=O)Cn2nc(C)cc2C)cc1
 : i, >57
CCC1C(=O)N=C(SCC(=O)Nc2cccc3ccccc23)NC1=O (stereo not drawn)
 : i, >57
Fc1ccc(Nc2ncncc2-c2ccoc2)cc1
 : i, /
C1CCc2nnc(-c3nnc4n3CCCCC4)n2CC1
 : i, /
CCOC(=O)C1=C(N)n2c(s/c(=C\c3cccs3)c2=O)=C(C(=O)OCC)C1c1cccs1 (stereo not drawn)
 : i, /
Cn1c(N)c(C(=O)COC(=O)CCCc2c[nH]c3ccccc23)c(=O)n(C)c1=O
 : i, >57
CCOc1nc(C)ccc1-c1noc(-c2ccco2)n1
 : i, >57
Nc1ncnc2c1ncn2CCNCCc1ccccc1
 : i, >57
O=C(CSC1=NCCS1)N1CCCCCC1
 : i, >57
CCOC(=O)CSC1=Nc2ccccc2C2=NC(CC(=O)NCc3ccc(OC)cc3)C(=O)N12 (stereo not drawn)
 : i, >57
CCOC(=O)C(NC(=O)OC(C)C)(Nc1nccs1)C(F)(F)F (stereo not drawn)
 : i, >57
C=CCSc1nnc2c(n1)OC(c1cccnc1)N(C(C)=O)c1ccccc1-2 (stereo not drawn)
 : i, >57
CCn1c(CNC(=O)c2ccc(OC)c(OC)c2)nnc1SCC(=O)c1ccc(OC)cc1
 : i, >57
Cc1sc(-n2c(C)ccc2C)c(C#N)c1C
 : /, >26
O=C(COC(=O)Cn1cnc2ccccc21)Nc1ccc2c(c1)OCCO2
 : i, >57

Remaining list, next part
Results follow in this order: YjeE inh, PK Bst
Cc1ccc(S(=O)(=O)N(C)CC(=O)N2CCOCC2)cc1
 : i, >57
O=C(c1ccco1)N1CCN(CC(O)COc2ccc3oc4ccccc4c3c2)CC1 (stereo not drawn)
 : i, /
O=C(c1cc2c(s1)CCC2)N1C(=O)c2ccccc2S1(=O)=O
 : i, >57
O=c1[nH]c2sc3c(c2c(=O)n1Cc1ccccc1)CCC3
 : /, >26
CCOC(=O)c1coc(CNC(=O)c2c(C)oc3c2CCCC3)c1
 : i, >57
O=S(=O)(c1ccccc1)N1CCC[C@@]2(CCN(c3cccc(-c4ccccc4)c3)C2)C1
 : i, /
CCOC(=O)C1CCCN(C(=O)c2cncc(Br)c2)C1 (stereo not drawn)
 : i, >57
C[C@@]12CC[C@@H]3c4ccc(O)cc4CC[C@H]3[C@H]1CC[C@H]2O
 : i, /
Cc1c(N(C)C)nc2ccccc2c1N
 : i, /
C[C@@]12CC[C@@H]3c4ccc(O)cc4CC[C@H]3[C@H]1C[C@@H](O)[C@H]2O
 : i, /
Cc1oc(-c2cccc(Cl)c2)nc1CN1CCCC(C(=O)NCc2ccco2)C1 (stereo not drawn)
 : i, >57
Cc1nc2ccc(S(=O)(=O)NCC(=O)N3CCN(c4ccccn4)CC3)cc2s1
 : i, >57
C=CCN(C(=O)CNS(=O)(=O)c1ccccc1)C(C(=O)NCCOC)c1ccncc1 (stereo not drawn)
 : i, >57
CCCCC[C@H](O)/C=C\[C@H]1[C@H](C/C=C\CCCC(=O)O)[C@@H](O)C[C@H]1O (tested in a mixture with another compound)
 : i, /
O=C(COc1ccccc1Cl)Nc1ccc2c(c1)OCCO2
 : i, /
Cc1cccc(C2CC(c3ccccc3)Nc3nc(N)nn32)c1 (stereo not drawn)
 : i, /
COc1cc(S(=O)(=O)N(Cc2ccco2)C2CCCC2)ccc1-n1cnnn1
 : i, >57
COc1ccc(-c2nc(C#N)c(NCCc3ccccc3)o2)cc1OC
 : i, i
CC(C)=CC(=O)Nc1ccc(Br)cc1
 : i, /
O=C(Nc1ccccc1)Nc1ccccc1C(=O)NCc1ccco1
 : i, /

Other results follow.
Results follow in this order: YjeE inh, PK Bst
COc1cccc(-c2nnc(SCc3nc4ccccc4[nH]3)n2N)c1
 : i, >57
CSc1nc(=NC(C)=O)ss1
 : i, >57
COC(=O)c1cn(-c2ccccc2)nc1-c1cccnc1
 : i, /
CCCOc1ccc(/C(O)=C2/C(=O)C(=O)N(CCN(C)C)C2c2ccc(O)c(OC)c2)cc1 (stereo not drawn)
 : i, >57
Cc1nnc(NCc2ccco2)c2ccccc12
 : i, >57
COc1ccc(CN2C(=O)NC3(CCCCCC3)C2=O)cc1F
 : i, >57
O=[n+]1c2c(n([O-])c3cc(Br)ccc31)CCC2
 : i, >57
COCCCNC(=O)CN(c1cccc(Cl)c1)S(C)(=O)=O
 : i, /
O=C(NCC1COc2ccccc2O1)c1ccc(NC(=O)C2CCCO2)cc1 (stereo not drawn)
 : i, >57
COc1cccc(-c2noc(C3CCCN(C(=O)Cc4ccccc4)C3)n2)c1 (stereo not drawn)
 : i, >57
CN1C=CC(=C2C(=O)c3ccccc3C2=O)C=C1
 : i, /
CC(=O)N1c2c(cc(Br)cc2S(=O)(=O)NCC2COc3ccccc3O2)CC1C (stereo not drawn)
 : i, >57
CCCCCCC(=O)NCC(=O)OCC(=O)c1ccccc1
 : i, >57
COc1ccc(C2(C(=O)NCC3CCCO3)CCOCC2)cc1 (stereo not drawn)
 : i, >57
CC(C)c1nc(-c2c(N)n(C)c(=O)n(C)c2=O)sc1C(=O)C(C)(C)C
 : i, >57
CCNC(=O)COn1c(SCC(=O)NCC)nc2ccccc2c1=O
 : /, >26
COc1ncc2nc(-c3ccc(Cl)cc3)c(=O)n(CCc3ccccc3)c2n1
 : i, /
COc1ccc(OC)c(S(=O)(=O)NCc2cn3c(C)csc3n2)c1
 : i, /
CS(=O)(=O)Nc1cccc(-c2nccc(-n3ccnc3)n2)c1
 : i, /
CCc1nc(SCC(=O)NCc2ccco2)c2c(=O)n(C)c(=O)n(C)c2n1
 : i, /

Remaining list, next part:
Results follow in this order: YjeE inh, PK Bst
CC12CN(C(=O)c3ccccc3)C3(C#N)CC1CCC23C (stereo not drawn)
 : i, >57
CCCCn1c(SCc2cc(=O)[nH]c3ccccc23)nc2c1c(=O)n(C)c(=O)n2C
 : i, >57
COc1ccccc1NC(=O)c1ccccc1NS(=O)(=O)N1CCCC1
 : i, >57
O=C(C1CCCN(S(=O)(=O)c2cccc3nonc23)C1)N1CCC(Cc2ccccc2)CC1 (stereo not drawn)
 : i, >57
Cc1ccc(C(=O)CSc2nnc(-c3ccco3)n2CC2CCCO2)cc1 (stereo not drawn)
 : i, >57
Cn1nc(-c2ccc(OCC(=O)Nc3cccnc3)cc2)c2ccccc2c1=O
 : i, >57
CCOC(=O)C1CCN(Cc2nc3ccccc3c(=O)n2-c2ccc(OCC)cc2)CC1
 : i, >57
O=C(CCCn1c(=O)c2sccc2n(Cc2cc(=O)n3ccccc3n2)c1=O)NCc1ccco1
 : i, /
CCOC(=O)c1sc2nccc(N(C)C)c2c1N=CN(C)C
 : i, /
COc1ccc(CN2C(=O)CCC2(C)C(=O)NC2CCCCC2)c(OC)c1 (stereo not drawn)
 : i, >57
CCCCOc1ccc(OCCNS(=O)(=O)N(C)C)cc1
 : i, >57
CC(=O)Nc1ccc(OCC=C(Cl)Cl)cc1
 : i, /
CCN(CC)CCNC(=O)Cc1nn(CC)c(=O)c2ccccc12
 : i, >57
CCOC(=O)c1ccc2c(c1)n(CCO)c(C)[n+]2CC
 : i, >57
CC(=O)O[C@@H]1CC[C@]2(C)C(=C[C@@H]([C@@H]3C=C4C[C@@H](OC(C)=O)CC[C@]4(C)C4=C3[C@H]3C[C@@H]5O[C@@]6(CC[C@H](C)CO6)[C@@H](C)[C@@H]5[C@@]3(C)CC4)C3=C2CC[C@@]2(C)[C@H]4[C@@H](C)[C@]5(CC[C@H](C)CO5)O[C@@H]4C[C@H]32)C1
 : i, /
Cc1ccccc1C(=O)c1cccn1CC(=O)NCc1ccco1
 : i, >57
COc1ccc(N2C(=O)CSC23C(=O)N2CCCc4cccc3c42)cc1 (stereo not drawn)
 : i, ?
CC1CC(C)(C)NC(=S)S1 (stereo not drawn)
 : i, >57
